VDR inh = inhibitors of human vitamin D receptor; P11473; VDR-SRC2-3 peptide fluorescence polarization, 2 h; Potency, µM, for the others: max response, negative = inhibition, most hits filed as inhibitors; 400,000 tested, 0.93% active; active = well fitted inhibition curve with a large enough effect; inconclusive = small, poorly fitted or top-dose-only effect, or another doubt; inactive = no such curve, though single readings can be large or run the other way; note: series mostly up to about 120 µM
Target sequence (P11473 whole entry, looked up): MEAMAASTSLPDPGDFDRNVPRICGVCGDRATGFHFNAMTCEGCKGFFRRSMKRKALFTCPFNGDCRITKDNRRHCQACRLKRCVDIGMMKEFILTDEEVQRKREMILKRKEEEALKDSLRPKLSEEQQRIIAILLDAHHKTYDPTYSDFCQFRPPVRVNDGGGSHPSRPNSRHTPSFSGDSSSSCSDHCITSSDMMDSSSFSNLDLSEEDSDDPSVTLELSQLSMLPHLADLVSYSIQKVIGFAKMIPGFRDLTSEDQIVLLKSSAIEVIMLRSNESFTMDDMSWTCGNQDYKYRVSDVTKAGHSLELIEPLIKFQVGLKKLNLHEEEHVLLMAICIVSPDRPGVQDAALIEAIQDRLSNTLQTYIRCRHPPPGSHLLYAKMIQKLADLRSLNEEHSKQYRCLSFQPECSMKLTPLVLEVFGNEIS
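Signal is fluorescence polarization, reporting how far test compounds block the interaction of VDR with the SRC2-3 coregulator peptide after a 2 h room-temperature incubation.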
* marks the source's active call; other numbers are inactive results; & = joins results of further samples. % is set by controls: 0 for no effect and ±100 for the full control effect; potency is the fitted concentration of half-maximal effect.

How did N#Cc1c(N)nc(N2CCCC2)c(C#N)c1-c1ccc(Cl)cc1 do in these assays?
VDR inh: 11%

What do the screens show for `CCCCn1nc(C(=O)N2CCc3ccccc32)c2ccccc2c1=O`?
VDR inh: -5%

How did Cc1ccc(NC(=O)COC(=O)/C=C/c2cccc(Cl)c2)cc1S(=O)(=O)N1CCOCC1 do in these assays?
VDR inh: -1%

What do the screens show for `O=C(Nc1ccc2c(c1)OCCO2)c1cc(F)c(F)cc1Cl`?
VDR inh: -6%

How did O=C(N/N=C/c1cccc(OCc2ccccc2)c1)c1cccs1 do in these assays?
VDR inh: 7%

How did CCOC(=O)Cc1csc(SCC(=O)NC2CCCCC2)n1 do in these assays?
VDR inh: -13%

What do the screens show for `Cc1c(C(=O)NNC(=O)Nc2ccc([N+](=O)[O-])cc2)oc2ccccc12`?
VDR inh: 24%

Results for COc1ccc(N(CC(=O)Nc2ccc(C)c(C)c2)C2=NC3CS(=O)(=O)CC3S2)cc1 (stereo not given) ?
VDR inh: -5%

What do the screens show for `CC(=O)c1cccc(NC(=O)c2noc3c2CSc2ccccc2-3)c1`?
VDR inh: 9%

What do the screens show for `CC(C)C1=CC2=CC[C@H]3[C@](C)(C(=O)O)CCC[C@]3(C)C2CC1` (stereo not given in full)?
VDR inh: -28%

Results for CCN(CC)S(=O)(=O)c1ccc2c(c1)N(CC(=O)NCCN1CCOCC1)C(=O)CO2 ?
VDR inh: -8%

How did CC1(OC(=O)c2cccs2)C(=O)C=C2C=C(C3CC3)OC=C2C1=O (stereo not given) do in these assays?
VDR inh: 3%&-8%&2%

What do the screens show for `COC(=O)c1c(NC(=O)c2ccccc2)sc(Cc2ccccc2)c1C`?
VDR inh: -3%

Results for CCOc1ccccc1C(=O)NCc1ccco1 ?
VDR inh: -7%

What do the screens show for `CCOc1cc2[nH]c(=O)n(Cc3ccc(C(=O)NCCCN4CCCC4=O)cc3)c(=O)c2cc1OCC`?
VDR inh: -16%

What do the screens show for `N#C/C(=C\c1ccccn1)c1ccccn1`?
VDR inh: -18%

How did COc1ccc(C(=O)NC(=S)Nc2ccc(Cl)c(C(=O)O)c2)cc1 do in these assays?
VDR inh: 4%

Results for COc1ccc(C(=O)N2CCN(c3ccccn3)CC2)cc1[N+](=O)[O-] ?
VDR inh: -4%

What do the screens show for `COc1cc(Br)cc(/C=N/N(CCO)C2=NS(=O)(=O)c3ccccc32)c1OC`?
VDR inh: 8%

Results for CC(=O)N1c2ccccc2CC1C(=O)N1CCN(c2ccccc2)CC1 (stereo not given) ?
VDR inh: 7%

Sorted by SMILES length (smallest number first): three of the compounds above
What do the screens show for `N#C/C(=C\c1ccccn1)c1ccccn1`?
VDR inh: -18%

Results for CC(=O)N1c2ccccc2CC1C(=O)N1CCN(c2ccccc2)CC1 (stereo not given) ?
VDR inh: 7%

Results for CCN(CC)S(=O)(=O)c1ccc2c(c1)N(CC(=O)NCCN1CCOCC1)C(=O)CO2 ?
VDR inh: -8%

Further records follow.
Results for COc1ccccc1-c1nnc(SCC(=O)Nc2ccc(S(N)(=O)=O)cc2)n1N ?
VDR inh: -4%

Results for Cc1ccc(NC(=O)CCn2c(=O)oc3ccccc32)c(C)c1 ?
VDR inh: -12%

How did CC(=O)Nc1ccc(Nc2cc(C)nc(Nc3ccc(NC(C)=O)cc3)n2)cc1 do in these assays?
VDR inh: -13%

What do the screens show for `CCCCc1cc(=O)oc2cc(C)cc(OCC(=O)N3CCC(C(N)=O)CC3)c12`?
VDR inh: 6%

How did COC(=O)CC1COc2ccccc2N1S(=O)(=O)c1ccc(Br)cc1 (stereo not given) do in these assays?
VDR inh: -24%

What do the screens show for `O=C(Cn1c(-c2cccs2)cc2cc(Cl)ccc21)NCc1ccccc1`?
VDR inh: 7%

How did COc1ccccc1CNC(=O)C(=O)NCC1OCCN1S(=O)(=O)c1ccc(Br)cc1 (stereo not given) do in these assays?
VDR inh: -3%

What do the screens show for `Clc1ccc(-c2ncc3ccccn23)cc1`?
VDR inh: 0%

What do the screens show for `Cc1ccc(C(=O)NC2CCN(C(=O)NC3CCCCC3)CC2)cc1`?
VDR inh: 3%

How did O=C(Cc1ccc([N+](=O)[O-])cc1)N1N=C(C2CC2)CC1(O)C(F)(F)F (stereo not given) do in these assays?
VDR inh: -11%

Results for Cc1cc(C)c(C)c(S(=O)(=O)N2CCC(C(=O)NCCCN3CCCC3=O)CC2)c1C ?
VDR inh: 15%

Results for Cc1ccc(S(=O)(=O)N2CCCC2)cc1C(=O)NCC(C)(C)N1CCOCC1 ?
VDR inh: -4%

What do the screens show for `O=C(CSc1c[nH]c2ccccc12)NC1CCCC1`?
VDR inh: -11%

How did O=C(Nc1cccnc1)c1ccc(S(=O)(=O)N2CCCCCC2)cc1 do in these assays?
VDR inh: 21%

Results for CC(C)c1ccc(/C=C(\NC(=O)c2ccccc2)C(=O)NCCCn2ccnc2)cc1 ?
VDR inh: -24%

What do the screens show for `CCc1nc(Nc2ccccc2)c2nnn(Cc3ccccc3)c2n1`?
VDR inh: 11%

Results for Cc1cccc(CNC(=O)c2ccc(-c3nc(CS(=O)(=O)c4ccccc4)c(C)o3)cc2)c1 ?
VDR inh: 12%

What do the screens show for `O=C(COC(=O)Cc1ccccc1[N+](=O)[O-])Nc1nnc(-c2ccccc2)o1`?
VDR inh: 19%

Results for O=C(Nc1nnc(C2=COCCO2)o1)c1ccc(S(=O)(=O)N2CCOCC2)cc1 ?
VDR inh: 0%

What do the screens show for `O=C(Nc1ccc(F)cc1)C(c1ccccc1)N1CCN(C(=O)c2ccco2)CC1` (stereo not given)?
VDR inh: -1%

Reprinted at random: four compounds from above
Results for Cc1ccc(S(=O)(=O)N2CCCC2)cc1C(=O)NCC(C)(C)N1CCOCC1 ?
VDR inh: -4%

Results for COc1ccccc1-c1nnc(SCC(=O)Nc2ccc(S(N)(=O)=O)cc2)n1N ?
VDR inh: -4%

What do the screens show for `O=C(Nc1ccc(F)cc1)C(c1ccccc1)N1CCN(C(=O)c2ccco2)CC1` (stereo not given)?
VDR inh: -1%

What do the screens show for `O=C(CSc1c[nH]c2ccccc12)NC1CCCC1`?
VDR inh: -11%

(cont.)
What do the screens show for `Oc1ccc(/C=N/NC(=S)NC2CC3CCC2C3)cc1` (stereo not given)?
VDR inh: -8%

Results for Cc1ccc(C(=O)Nc2ccc(N3CCCC3)cc2)c(C)c1 ?
VDR inh: -9%

Results for NS(=O)(=O)c1cccc(NC(=O)COc2ccc([N+](=O)[O-])cc2)c1 ?
VDR inh: -8%

How did CCOc1ccc(S(=O)(=O)c2c(C(=O)c3ccccc3)cnc3cc4c(cc23)OCCO4)cc1 do in these assays?
VDR inh: 22%

What do the screens show for `COc1ccc(CNC(=O)CNS(=O)(=O)c2cccs2)cc1`?
VDR inh: 4%

What do the screens show for `COc1ccc(-c2nc(CSCC(=O)N3CCN(c4cccc(C)c4C)CC3)c(C)o2)cc1OC`?
VDR inh: 4%

Results for COc1ccc(N2CCN(CC(O)COC(c3ccccc3)c3ccccc3)CC2)cc1 (stereo not given) ?
VDR inh: -1%

What do the screens show for `CCOc1cc(C(=O)NCCc2sc(-c3ccc(F)cc3)nc2C)cc(OCC)c1OCC`?
VDR inh: 6%

How did COc1ccc(Cl)cc1S(=O)(=O)NC(C)C(=O)NCCCn1ccnc1 (stereo not given) do in these assays?
VDR inh: -20%

How did CC(=O)N1c2ccc(S(=O)(=O)N3CCCCCC3)cc2CC1C(=O)NC(C)C (stereo not given) do in these assays?
VDR inh: -1%

What do the screens show for `CCCN(Cc1cccs1)C(=O)Nc1cc(OC)ccc1OC`?
VDR inh: 9%

Results for CN(C)CCC1CCN(c2cc(C#N)c(C#N)cc2[N+](=O)[O-])CC1 ?
VDR inh: -10%

What do the screens show for `N#CC(C#N)=C1NC2(CCCC2)Cc2ccccc21`?
VDR inh: -13%

What do the screens show for `C[C@@H]1[C@H]2CCCC[C@H]2CN(C(=O)OC(C)(C)C)[C@@H]1c1cn(Cc2ccccc2)c2ccc(F)cc12`?
VDR inh: 0%

What do the screens show for `CN1C(=O)[C@@H]2[C@H](C1=O)[C@@H]1C(=O)Nc3ccccc3C(=O)N1[C@@H]2c1ccc(F)cc1`?
VDR inh: -14%

What do the screens show for `O=C(CCS(=O)(=O)c1ccc(Br)s1)Nc1cc(C(F)(F)F)cc(C(F)(F)F)c1`?
VDR inh: -18%

What do the screens show for `CCCn1c(SCC(=O)NC2CCCc3ccccc32)n[nH]c1=O` (stereo not given)?
VDR inh: -26%

How did O=C(O)c1ccc2c(=O)[nH]c(CN3CCOCC3)nc2c1 do in these assays?
VDR inh: -10%

Results for COc1ccccc1/C=C/C(=O)N1CCC(c2ccccc2)C1 (stereo not given) ?
VDR inh: 2%

Results for CC1(C)C(=O)Nc2ccccc2N1C(=O)CSc1nnc2ccccn12 ?
VDR inh: -4%

What do the screens show for `CCNCc1cc(Cl)c(OCc2ccccc2)c(OCC)c1`?
VDR inh: -2%

How did C=CCn1c(SCC(=O)N2CCN(CCO)CC2)nc2sc3c(c2c1=O)CCC3 do in these assays?
VDR inh: 4%

What do the screens show for `CCC(C)c1ccc2oc(-c3ccc(NC(=O)Cn4cnc5c(=O)n(C)c(=O)n(C)c54)cc3)nc2c1` (stereo not given)?
VDR inh: 4%

How did O=[N+]([O-])c1cc(-c2nc(-c3ccco3)no2)ccc1NCc1ccccc1 do in these assays?
VDR inh: 19%

How did O=C(Nc1ccccc1N1CCOCC1)c1ccc([N+](=O)[O-])s1 do in these assays?
VDR inh: -4%

Results for O=C(COC(=O)/C=C/c1cccs1)Nc1ccccc1Cl ?
VDR inh: -4%

What do the screens show for `Fc1ccc(CNc2nc(-c3ccccc3)nc3ccccc23)cc1`?
VDR inh: 7%

How did CCOc1ccc(C2/C(=C(\O)c3ccc4c(c3)OCCO4)C(=O)C(=O)N2CCCN2CCOCC2)cc1 (stereo not given) do in these assays?
VDR inh: -3%

How did CCN(CC)C(=O)[C@H]1CC(CC(=O)NCCCOC)C(=O)N2CCc3c([nH]c4ccccc34)[C@]12C (stereo not given in full) do in these assays?
VDR inh: -5%

What do the screens show for `COc1ccc2c(c1)O[C@H](c1ccc3c(c1)OCO3)[C@@H](O)C2=O`?
VDR inh: -4%&-6%

How did Cn1c(=O)n(C)c2cc(S(=O)(=O)NCc3ccccc3)ccc21 do in these assays?
VDR inh: -22%

How did CC(=O)c1cccc(NC(=O)Cn2cnc(S(=O)(=O)N3CCOCC3)c2)c1 do in these assays?
VDR inh: -9%

Results for O=C(Nc1cc([N+](=O)[O-])ccc1O)c1cccc(NC(=O)c2ccco2)c1 ?
VDR inh: 8%

What do the screens show for `O=C(C[C@H]1C/C=C\C[C@H](Cc2ccc(F)cc2)C(=O)O[C@@H](c2ccccc2)CNC1=O)NCCO`?
VDR inh: -11%

What do the screens show for `CC(=O)C1C(c2ccc(O)cc2)NC(=O)NC1(O)C(F)(F)F` (stereo not given)?
VDR inh: 5%

How did Cc1coc2cc3oc(=O)c(CCC(=O)NCc4ccc(Cl)cc4)c(C)c3cc12 do in these assays?
VDR inh: 3%

What do the screens show for `Cc1ccc(C)c(NC(=O)CSc2nnc(C)c(=O)n2N)c1`?
VDR inh: -10%

Results for COc1cc(NC(C)=O)ccc1-c1cc2ccccc2oc1=O ?
VDR inh: 4%

Results for CCOC(=O)Cc1csc(NC(=O)CCCN2C(=O)c3ccccc3C2=O)n1 ?
VDR inh: 5%

How did CN1CCN(c2ccc(C(=O)NC3CCCCC3)cc2[N+](=O)[O-])CC1 do in these assays?
VDR inh: -3%

In the list so far, these contain a CF3 group.
How did O=C(Cc1ccc([N+](=O)[O-])cc1)N1N=C(C2CC2)CC1(O)C(F)(F)F (stereo not given) do in these assays?
VDR inh: -11%

What do the screens show for `O=C(CCS(=O)(=O)c1ccc(Br)s1)Nc1cc(C(F)(F)F)cc(C(F)(F)F)c1`?
VDR inh: -18%

What do the screens show for `CC(=O)C1C(c2ccc(O)cc2)NC(=O)NC1(O)C(F)(F)F` (stereo not given)?
VDR inh: 5%

Following part
Results for CC(C)Cc1c2c([nH]c(=S)c1C#N)CCCC2 ?
VDR inh: inconclusive

How did Cc1cc(NC(=O)CN(C)S(=O)(=O)c2cccc(Cl)c2)no1 do in these assays?
VDR inh: -15%

What do the screens show for `COc1ccc(C(=O)N2CCN(Cc3ccc(OC)c(OC)c3)CC2)cc1`?
VDR inh: -4%

Results for CCOC(=O)c1cnc2c(OC)cccc2c1N1CCN(c2ccc(OC)cc2)CC1 ?
VDR inh: 4%

How did Cc1nc2ccc(NC(=S)NCc3ccccc3)cc2nc1C do in these assays?
VDR inh: -23%

How did COc1ccc(CNC(=O)COC(=O)CNC(=O)c2sc3ccccc3c2Cl)cc1OC do in these assays?
VDR inh: -9%

Results for CC(=O)NC(Cc1ccc(C(C)C)cc1)C(=O)NC1CCN(C(=O)c2cccc(C)c2)CC1 (stereo not given) ?
VDR inh: -17%

How did COc1cc(C(N)=O)ccc1OCc1ccccc1 do in these assays?
VDR inh: 12%

What do the screens show for `Cc1ncc(S(=O)(=O)c2ccccc2)c(-c2ccccc2Cl)n1`?
VDR inh: 20%

What do the screens show for `COc1cc2oc(=O)c(CC(=O)NCCc3ccccc3F)c(C)c2cc1OC`?
VDR inh: 4%

Screening results from PubChem BioAssay.

Some of the compounds tested; the hit share may differ from the screen's.
